Compound activity (PubChem BioAssay)
Sa growth inh: blocks Staphylococcus aureus growth. relative growth, % (concentration not given with the values). S. aureus RN4220 growth, OD600, 20 h, 42 °C; active compounds read low. 0.53% of 170,000 active;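 active means growth at 42 °C up to 50% and 20 or more points under that at 30 °C, or under 10% at both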;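 further: 300 nL library stock went into each well; scaled to the means of positive and negative controls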
HCMV UL50-53 inh: inhibitors of HCMV UL50-UL53 nuclear egress complex interaction | AID 1918969 | HTRF UL50-UL53 interaction, normalized percent inhibition | 0.15% of 190,000 active | inhibition, % (concentration not given with the values);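 active means both replicates at 50% or more, plus weaker picks with an unusually low signal ratio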;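 further: stock transfer was 100 nL into about 20 µL; 0% = negative control wells and 100% = wells with untagged competitor protein; inactives centre near -12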
GIV Gai3 FP: inhibitors of GIV GBA-motif binding to rat Galpha-i3; P08753; Galpha-i3/FITC-GIV peptide fluorescence polarization, 90 min; active compounds read low; scaled: aluminum fluoride 0%, vehicle 100%; percent of control (FP), % (concentration not given with the values); 0.42% of 210,000 active;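 active means replicate mean at 85% of control or lower, very high polarization wells dropped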;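 further: wells of about 15 µL received 100 nL stock; the first replicate is given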
Target sequence (P08753 whole entry, looked up): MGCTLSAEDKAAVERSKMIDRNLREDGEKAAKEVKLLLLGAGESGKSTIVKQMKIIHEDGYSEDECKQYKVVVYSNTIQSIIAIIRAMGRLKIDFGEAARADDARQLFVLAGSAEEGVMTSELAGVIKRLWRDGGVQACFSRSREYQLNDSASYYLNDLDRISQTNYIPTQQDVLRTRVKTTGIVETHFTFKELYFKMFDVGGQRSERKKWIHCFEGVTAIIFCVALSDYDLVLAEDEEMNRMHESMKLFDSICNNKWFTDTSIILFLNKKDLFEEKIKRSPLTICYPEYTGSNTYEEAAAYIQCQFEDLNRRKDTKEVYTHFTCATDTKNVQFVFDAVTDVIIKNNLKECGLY
Sa growth inh second temp: also measured in Sa growth inh; calls as there; relative growth, %; measured here: growth at 30 °C;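 optical density after 20 h as mean of two plates; 100% = untreated growth and lower means inhibition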
* = called active by the depositor; · = no result given; & = joins results of further samples. Compounds were not picked by outcome; overall some 0.83% were active at least once.

SMILES	Sa growth inh	Sa growth inh second temp	HCMV UL50-53 inh	GIV Gai3 FP
COc1ccc(S(=O)(=O)n2ccnc2)cc1C	96	86	-7&-25	104&103
O=C(O)CSC1=NCCS1	93	89	-27	106
CCCCN(Cc1ccco1)C(=O)c1cc2c(=O)n(CC)c3ccccc3c2s1	97	85	-26	111
CCC(Oc1ccc(F)cc1)C(=O)Nc1nc(-c2ccc(F)cc2)ns1 (stereo not given)	89	50	-28	97
CC(C)C(=O)Nc1ccc2oc(-c3ccncc3)nc2c1	93	90	-4	97
Cc1ccsc1CNn1nnnc1N	97	91	4	·
O=C(COC(=O)/C=C/c1ccc(I)o1)CN1CCN(C(=O)c2ccco2)CC1	97	91	-82	·
CC1CCCC(NC(=O)CSCc2cnn(-c3ccccc3)c2-n2cccc2)C1C (stereo not given)	89	80	·	98
Cc1ccc(C(=O)COC(=O)C(Cc2ccccc2)N2C(=O)C3C4C=CC(C4)C3C2=O)cc1 (stereo not given)	·	·	10	107
CS(=O)(=O)NCc1cn2ccsc2n1	96	89	1	104
COC(=O)c1[nH]c2c(c1C)C(=O)CC(c1ccccc1)C2 (stereo not given)	127	83	·	100
CCOC(=O)C1CCCN(c2c3c(nc4cc(-c5ccc(F)cc5)nn24)CCCC3)C1 (stereo not given)	83	85	-2	101

Molecules above that contain a thiophene ring, fused or not:
SMILES	Sa growth inh	Sa growth inh second temp	HCMV UL50-53 inh	GIV Gai3 FP
CCCCN(Cc1ccco1)C(=O)c1cc2c(=O)n(CC)c3ccccc3c2s1	97	85	-26	111
Cc1ccsc1CNn1nnnc1N	97	91	4	·

The results go on:
SMILES	Sa growth inh	Sa growth inh second temp	HCMV UL50-53 inh	GIV Gai3 FP
CC1CCN(CCCNC(=O)c2cc(Sc3ccc(F)cc3)nc3ccccc23)CC1	114	83	·	98
COc1ccc(-n2cc(C(=O)NCCOc3cccc(-n4cnnn4)c3)nn2)cc1	114	87	0	107
CCCCN(CCCNC(=O)c1cc(Nc2cccc(SC)c2)nc2ccccc12)Cc1ccccc1	87	87	10	105
Cc1ccc(Cn2nc(C)c(/C=N/N3CCOCC3)c2C)cc1	112	83	-30	·
Cc1cccc(S(=O)(=O)NCc2cccc(C(F)(F)F)c2)c1	87	86	-31	·
CC(C)c1ccc2nc(Nc3nc4ccc(S(C)(=O)=O)cc4s3)sc2c1	102	96	·	108
O=C(CCN1C(=O)c2cccnc2Sc2ccccc21)N1CCc2ccccc21	101	92	-23	100
CC1(C)C2CCC1(CS(=O)(=O)n1cnc3ccccc31)C(=O)C2 (stereo not given)	109	100	-2	95
CCOc1ccccc1N(CC)C(=O)c1ccc2c(=O)n3c(nc2c1)CCCCC3	99	90	12	107
COc1ccc(/C=C/C(=O)Nc2ccncc2)cc1OC	121	86	-91	·
Cc1ccccc1-c1ccc(N2CCCC(C(=O)NC3CCCCC3)C2)nn1 (stereo not given)	·	·	17	101
Fc1ccc(NCc2ccccc2-c2nnc(-c3ccccc3Cl)o2)cc1	100	92	-13	106
O=C(O)C12CC3CC(CC(S)(C3)C1)C2	132	103	-14	94
N#Cc1ccccc1OCC(=O)Nc1ccc2c(c1)OCCO2	94	96	8	·
COc1cc(OC)c(Nc2nc3ccc(C)cc3n3nnnc23)cc1Cl	106	118	·	111
O=C(NC1CCCCC1)C1CCCN(c2nccn3nc(-c4cccc(Cl)c4)cc23)C1 (stereo not given)	·	·	-14	107
O=C(NCCN1CCOCC1)c1cc2ccc3cccnc3c2[nH]1	101	77	-34	101
CCOc1cc(/C=C2\SC(=S)N(c3c(C)n(C)n(-c4ccccc4)c3=O)C2=O)ccc1O	·	·	-53	107
O=C(NCCc1ccccc1)C1CCN(c2cnccn2)CC1	84	86	-19	102
C=CCn1c(=N)c(C#N)cc2c(=O)n3cccc(C)c3nc21	92	87	-49	113
COc1ccc(OCC(=O)N2CCN(S(C)(=O)=O)CC2)cc1	102	82	-11	104
Cc1nc(-c2ccccn2)n2nnnc2c1Cl	127	64	-10	96
N#Cc1c(N)n(-c2ccc(O)cc2)c2nc3ccccc3nc12	118	101	·	100
COc1cc(C2NC(=O)N(C)C(C)=C2C(=O)OCCOc2ccccc2)cc(Br)c1O (stereo not given)	·	·	-15	100
O=S(=O)(c1ccc(Cl)cc1)c1nc(-c2ccccc2Br)oc1N1CCOCC1	103	84	-33	106
Cc1cccc(-c2nc(CN3CCCC(C(=O)N4CCN(c5cc(Cl)ccc5C)CC4)C3)c(C)o2)c1 (stereo not given)	106	93	-16	103
Cc1ccc(O)c(NC(=O)c2cc(-c3ccc(F)cc3)no2)c1	111	91	·	105
COc1ccc(COCC(O)CS(=O)(=O)Cc2ccc(C)cc2)cc1 (stereo not given)	89	86	-2	100
O=C(c1ccc(COc2c(F)c(F)c(F)c(F)c2F)o1)N1CCOCC1	97	85	0	·
CCOC(=O)c1ccc(NC(=O)CN(c2ccc(C)cc2)S(=O)(=O)c2c(C)noc2C)cc1	107	84	14	103
Cc1onc2c(=O)n(CC(=O)N3CCN(C4CCCCC4)CC3)nc(-c3ccc(Cl)cc3)c12	·	·	3	102
CC12COC3(C(=O)Nc4ccccc4)CC1CCC32C (stereo not given)	88	92	11	104
O=S(=O)(NC1CCCCC1NS(=O)(=O)c1ccc(F)cc1)c1ccc(F)cc1 (stereo not given)	100	100	-8	99
CCOC(=O)c1nc(Nc2ccc(OC)cc2)c2ccccc2n1	111	94	-44	106
Cc1c(CCNC(=O)c2ccc(C(F)(F)F)cc2)sc2nc(-c3ccc(F)cc3)nn12	112	95	·	100
O=C(NCCCN1CCCC1)c1ccc(N2CCCC2=O)cc1	94	91	3	105
COc1ccc(CC(=O)N2c3ccccc3Sc3ccccc32)cc1OC	107	93	·	104
COc1ccc(OCCC(=O)OCc2c(C)noc2C)cc1	96	92	-16	·
Clc1ccc2oc(-c3ccccc3)nc2c1	100	79	-7	98
O=C(NC1CCCC1)c1cc(=O)[nH]c2ccc(Br)cc12	90	83	·	100
O=C1c2ccccc2S(=O)(=O)N1CC(O)Cn1c2ccccc2c2ccccc21 (stereo not given)	121	79	·	99
O=C(CCC1CCCC1)N1CCc2c([nH]c3ccccc23)C1c1ccc(Cl)cc1 (stereo not given)	84	102	·	99
CCOc1ccc(OCCCC(=O)O)cc1	90	104	-14	·
Cc1ccc(OCC(=O)Nc2ccc(S(=O)(=O)N3CCCC3)cc2)cc1	96	94	-4	·
Cc1ccc2c(c1)N(C(=O)CCC(=O)NC1CCCC1)CCO2	86	77	-22	102
CCOc1ccc(NC(=O)Cn2cnc3nc4c(cc3c2=O)CCCC4)cc1	99	91	·	104
O=C(C(Cc1ccccc1)N1C(=O)C2C3C=CC(C3)C2C1=O)N1CCOCC1 (stereo not given)	88	93	8	·
COCCCNC(=O)CCCn1c(=O)c2cccn2c2cccnc21	107	85	·	101

Taken from above:
Result for CCOC(=O)c1nc(Nc2ccc(OC)cc2)c2ccccc2n1 under Sa growth inh: 111
Result for O=C(COC(=O)/C=C/c1ccc(I)o1)CN1CCN(C(=O)c2ccco2)CC1 under HCMV UL50-53 inh: -82
Result for CS(=O)(=O)NCc1cn2ccsc2n1 under HCMV UL50-53 inh: 1
Result for CCCCN(CCCNC(=O)c1cc(Nc2cccc(SC)c2)nc2ccccc12)Cc1ccccc1 under GIV Gai3 FP: 105
Result for CCOc1ccc(NC(=O)Cn2cnc3nc4c(cc3c2=O)CCCC4)cc1 under Sa growth inh: 99
Result for CCOc1cc(/C=C2\SC(=S)N(c3c(C)n(C)n(-c4ccccc4)c3=O)C2=O)ccc1O under GIV Gai3 FP: 107

(next part)
SMILES	Sa growth inh	Sa growth inh second temp	HCMV UL50-53 inh	GIV Gai3 FP
COc1ccc(-n2c(=O)c3c(c4cc(OC)ccc4n3C)n(Cc3ccc(F)cc3Cl)c2=O)cc1	98	92	·	106
c1ccc(CN2CCN(Cn3nnc4ccccc43)CC2)cc1	89	91	-18	102
O=C(CCc1c[nH]c2ccccc12)N/N=C/c1ccccc1O	96	80	-22	99
CCOC(=O)Nc1cccn(Cc2ccccc2F)c1=O	96	81	-23	98
Cc1cccc(C(=O)NC(C)(C)CC(C)(C)C)c1	95	84	-19	·
N/C(=C\C(=O)c1cccs1)C(F)(F)F	126	110	-22	104
COc1ccc(C(=O)NCc2ccccc2)cc1OC	106	105	-9	98
S=c1[nH]nc(CSCCOc2ccccc2)o1	99	103	-6	102
O=C(Cc1ccc(F)cc1)N1CCN(c2nc3cc(Br)ccc3n3cccc23)CC1	·	·	-22	107
CCC(C(=O)O)n1cnc2ccccc21 (stereo not given)	82	83	-21	98
CC(C)Cc1cc(-c2cccc(Br)c2)c(C#N)c(N)n1	90	95	-1	·
O=C(CNc1cc(=O)[nH]c(=S)[nH]1)NCc1ccco1	69	89	-23	·
O=C(c1ccc2c(c1)N(Cc1ccc(F)cc1)C(=O)c1ccccc1S2(=O)=O)N1CCN(Cc2ccccc2)CC1	101	85	-3	97
CCOC(=O)c1c(C)[nH]c(C)c1S(=O)(=O)NCC(=O)Nc1cccc(C(F)(F)F)c1	87	95	·	108
N#CC1(c2ccc(Cl)cc2)CCCCC1	96	83	-22	106
COC(=O)c1conc1C(C)(C)C	84	75	-1	99
COc1cc(/C=C(\C#N)c2ccc(C)cc2)cc(OC)c1OC	93	96	·	101
CCOC(=O)C1CCN(C(=O)c2cc3c(=O)[nH]c4ccccc4c3s2)CC1	·	·	-2	99
CCOC(=O)c1cc2ccccc2n1CC(=O)c1ccccc1	·	·	-34	103
CN1CCN(C(=O)c2n[nH]c(=O)c3ccccc23)CC1	108	87	-34	·
O=C(Nc1nnc(Sc2ccnc3cc(Cl)ccc23)s1)c1cccs1	105	87	-6	105
CCN(CC)CCNc1nc2c(c(=O)n(C)c(=O)n2C)n1CC(O)COc1ccc(OC)cc1 (stereo not given)	·	·	-3	101
Cc1cc(=O)[nH]c(N/N=C/CCc2ccccc2)n1	89	78	-18	96
CC1C2CC(=O)N(C)C1(C)Oc1ccccc12 (stereo not given)	106	93	-27	100

Record cards, as listed above. Values in the order: Sa growth inh, Sa growth inh second temp, HCMV UL50-53 inh, GIV Gai3 FP
CN1CCN(C(=O)c2n[nH]c(=O)c3ccccc23)CC1 in the list: 108, 87, -34, ·
CCOC(=O)c1c(C)[nH]c(C)c1S(=O)(=O)NCC(=O)Nc1cccc(C(F)(F)F)c1 in the list: 87, 95, ·, 108

Structures above that contain bromine:
SMILES	Sa growth inh	Sa growth inh second temp	HCMV UL50-53 inh	GIV Gai3 FP
COc1cc(C2NC(=O)N(C)C(C)=C2C(=O)OCCOc2ccccc2)cc(Br)c1O (stereo not given)	·	·	-15	100
O=S(=O)(c1ccc(Cl)cc1)c1nc(-c2ccccc2Br)oc1N1CCOCC1	103	84	-33	106
O=C(NC1CCCC1)c1cc(=O)[nH]c2ccc(Br)cc12	90	83	·	100
O=C(Cc1ccc(F)cc1)N1CCN(c2nc3cc(Br)ccc3n3cccc23)CC1	·	·	-22	107
CC(C)Cc1cc(-c2cccc(Br)c2)c(C#N)c(N)n1	90	95	-1	·

Remaining list, next part
SMILES	Sa growth inh	Sa growth inh second temp	HCMV UL50-53 inh	GIV Gai3 FP
COC(=O)c1c(NC(=O)CSc2nncs2)sc2c1CCCCC2	95	90	-16	·
O=C(NCCn1cccc1)c1cccc2ccccc12	107	61	-21	106
O=C(COc1ccc(Cl)cc1)OCc1cc(=O)n2nc(C3CCCCC3)sc2n1	105	89	·	105
NC(=O)C1CCN(C(=O)CC(c2ccccc2)c2ccccc2)CC1	95	77	-5	101
Cc1ccccc1NC(=O)NC(C)(C)CC(C)(C)C	110	79	-12	103
Nc1c(C(=O)N2CCOCC2)nnn1-c1ccccc1	96	76	-13	98
CC1=C(C(=O)OCCc2ccccc2)C(c2coc3ccccc3c2=O)C2=C(CCCC2=O)N1 (stereo not given)	·	·	-15	104
COc1ccc(NC(=O)N2CC(C)Sc3ccccc32)cc1 (stereo not given)	103	99	-3	107
Nc1ccc(C(F)(F)F)c(C(F)(F)F)c1	105	90	-17	·
Cc1cc(C)cc(OC(C)C(=O)Nc2ccc3c(c2)NC(=O)CO3)c1 (stereo not given)	·	·	-24	104
Cc1cc(C)c2c(-n3cccc3)c(C(=O)NCCc3ccc(S(N)(=O)=O)cc3)sc2n1	75	68	-29	102
COc1cc(C2NC(=O)N(C)C(C)=C2C(=O)OCc2ccccc2)cc(Br)c1O (stereo not given)	·	·	8	108
COc1ccc(N2CCN(C(=S)Nc3ccccc3)CC2)cc1	83	88	·	103
Cn1cccc1Cc1nnc(SCC(=O)Nc2ccccc2C(F)(F)F)n1CCc1ccccc1	85	99	·	94
Cc1cc2c(=O)[nH][nH]c(=S)n2n1	92	83	-6	97
Cc1ccc(/C=C2/SC(=S)N(c3ccc(C(=O)O)c(O)c3)C2=O)o1	101	80	-36	164
Cc1oc(-c2cccc(Cl)c2)nc1CS(=O)(=O)CC(=O)NC(C)CCc1ccccc1 (stereo not given)	99	63	-23	99
O=C(c1cccs1)N(Cc1cccnc1)Cc1ccc(Cl)cc1Cl	96	72	-9	102
COc1cc(OC)c(NC(=O)c2c(C)oc3ncnc(N4CCCCC4)c23)cc1Cl	95	87	·	103
Nc1ccc(NC(=O)CCN2CCOCC2)cc1	95	91	-6	·
COc1cccc(-n2c(SCC(=O)Nc3c(C)cc(C)cc3C)nc3c([nH]c4ccccc43)c2=O)c1	106	89	·	101
Cc1ccc(CSc2nc3c(c(=O)[nH]2)C(c2ccc(O)c(O)c2)CC(=O)N3)cc1 (stereo not given)	·	·	-11	106
Cc1ccc(Cn2cccc2CNS(=O)(=O)c2ccc(C)cc2)cc1	·	·	-29	103
Cc1ccccc1-n1cnnc1SCC(=O)c1cc(C)n(C2CCS(=O)(=O)C2)c1C (stereo not given)	107	98	12	·
